Mtb betalactam – beta-lactam sensitization of Mtb H37Rv. inhibition, % at 25 µM. M. tuberculosis H37Rv growth with meropenem, percent inhibition; hits of this screen are not shown here. 330,000 tested, 0.27% active;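 active = about 74% or more and at least 40 points above the plate without the antibiotic, then above 30% in a dose series; inconclusive = first-round hits that could not be retested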;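 note: growth measured after seven days incubation then overnight dye step; 0% = bacteria only wells and 100% = bacteria with antibiotic; twin plates without the antibiotic show which effects depend on it; some results filed as inactive read as strong as hits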
YopH inh – YopH (Yersinia) phosphatase inhibition; 140,000 tested, 0.16% active; AID 898; fluorescence Ex485/Em525; inhibition, %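 (about 10 µM by stock and volumes)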;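 active = inhibition of 50% or more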;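 note: controls were vehicle for no effect and minimum signal wells for full effect; inactives centre near -20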
Mtb growth – M. tuberculosis H37Rv growth inhibitors, H37Rv strain (AID 1626). one-dose inhibition, % at 10 µM; IC50 in µM for titrated hits. 220,000 tested, 0.95% active. M. tuberculosis H37Rv growth inhibition; higher % means a stronger effect;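 active = confirmed in a dose series; inconclusive = inhibition above 80% but not taken into the dose series; inactive = below 80% or under 30% at every dose of the series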;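 note: bacteria incubated seven days before Alamar blue readout; 0% = bacteria only wells and 100% = bacteria with antibiotic wells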
Arbovirus inh – blocks arbovirus infection. arbovirus infection cell-based antiviral screen. inhibition, % at 10 µM. 200,000 tested, 0.37% active. AID 1251;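 active = inhibition from about 30%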;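 note: bluetongue infection of BSR cells; cell survival read as ATP light after 72 h; 0% = infected wells without compound and 100% = uninfected wells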
RecA intein inh – inhibitors of M. tuberculosis RecA intein splicing; inhibition, %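 (about 9 µM by stock and volumes)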; AID 2221; P9WHJ3; cell-free RecA intein splicing, fluorescence; 290,000 tested, 0.75% active; in the data active = inhibition above about 30%; inconclusive = no clear call, values can overlap the other calls;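 note: 0% = vehicle wells and 100% = reference inhibitor control wells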
Target sequence (P9WHJ3 whole entry, looked up): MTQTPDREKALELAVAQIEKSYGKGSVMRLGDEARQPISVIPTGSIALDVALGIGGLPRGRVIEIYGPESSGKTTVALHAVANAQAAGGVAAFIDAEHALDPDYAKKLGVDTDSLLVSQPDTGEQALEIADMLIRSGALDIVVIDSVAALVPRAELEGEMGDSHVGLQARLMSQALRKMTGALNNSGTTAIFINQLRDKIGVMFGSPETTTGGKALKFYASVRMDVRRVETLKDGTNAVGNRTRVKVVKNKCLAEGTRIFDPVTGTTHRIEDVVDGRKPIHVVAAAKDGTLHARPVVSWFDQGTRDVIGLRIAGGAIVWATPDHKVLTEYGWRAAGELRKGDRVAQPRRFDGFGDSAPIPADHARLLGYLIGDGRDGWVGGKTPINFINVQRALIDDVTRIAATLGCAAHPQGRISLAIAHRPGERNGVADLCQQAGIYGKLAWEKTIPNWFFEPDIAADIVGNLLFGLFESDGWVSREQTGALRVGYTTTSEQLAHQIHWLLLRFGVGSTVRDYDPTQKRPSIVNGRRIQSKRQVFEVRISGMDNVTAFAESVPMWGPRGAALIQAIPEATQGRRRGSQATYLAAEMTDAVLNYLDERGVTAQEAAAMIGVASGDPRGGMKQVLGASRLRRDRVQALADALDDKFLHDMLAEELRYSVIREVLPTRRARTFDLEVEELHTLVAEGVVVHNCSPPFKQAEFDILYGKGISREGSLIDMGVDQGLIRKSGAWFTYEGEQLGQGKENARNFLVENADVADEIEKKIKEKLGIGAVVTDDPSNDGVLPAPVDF
Arbovirus inh repeat – further read-out of Arbovirus inh, marked with its call; inhibition, %; measured here: 10K subset replicate screen; many hits read low in the repeat;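 first of two repeat runs on a subset; 0% = infected and 100% = uninfected wells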
The depositor's hits bear a star; ? = inconclusive; · = no result given. A portion of the library; rates above refer to the full screens.

SMILES | Mtb betalactam | YopH inh | Mtb growth | Arbovirus inh | RecA intein inh | others
COc1ccc(CNc2cccc(F)c2)cc1Br | 2 | -28 | 16% | -17 | 13
CC1CCCCN1CC(=O)NCc1ccc2c(c1)OCO2 (stereo not drawn) | -7 | -43 | -4% | 3 | 0.4
O=C(N/C(=C\c1cccc([N+](=O)[O-])c1)C(=O)N(CCO)CCO)c1ccco1 | 4 | · | 0% | 5 | -1.5
Cc1cccc(C)c1N1CCN(c2ccc3nnc(C(F)(F)F)n3n2)CC1 | 96 | 4 | 12µM* | -46 | 0.7
Cc1ccc(NC(=O)C2C3/C=C\CCCCC32)cc1C (stereo not drawn) | 100 | 4 | ? | -1 | -2.1
CN1CCC(N(C)C(=S)Nc2ccc(F)cc2)CC1 | -6 | · | -4% | -1 | -1.3
O=C(COc1ccc([N+](=O)[O-])cc1Cl)NCC1CCCO1 (stereo not drawn) | 4 | · | -1% | 1 | -0.6
COc1ccc(N2C(=O)CC(C#N)=C2N)cc1 | -6 | · | -3% | 9 | -0.4
Oc1c(C(c2ccccn2)N2CCC(Cc3ccccc3)CC2)cc(Cl)c2cccnc12 (stereo not drawn) | 0 | · | -6% | -30 | 4.9
O=C(NCCN1CCOCC1)Nc1ccc(Cl)cc1Cl | -4 | -24 | -4% | 3 | -5.8
CCN(CC(=O)NCc1ccc(Cl)cc1)Cc1cc(=O)n2ccsc2n1 | 13 | · | -6% | 7 | -5.2
CC1=C(C)CC(C(=O)Nc2nc(-c3ccc(C)cc3C)c(C)s2)C(C(=O)O)C1 (stereo not drawn) | 1 | -14 | -3% | 14 | 3.8
CCc1ccc(NC(=O)CCC(=O)c2ccc(C)cc2)cc1 | 83 | · | · | · | -1.2
C=COCCNC(=O)Nc1ccc(Cl)cc1Cl | 1 | -10 | -12% | 2 | ·
CCOc1ccc(OCCOCCN2CCc3ccccc3C2)cc1 | 2 | 10 | -3% | -9 | 3.7
CC(=O)c1cccc(OCC(=O)Nc2cc(S(=O)(=O)N3CCOCC3)ccc2N2CCCC2)c1 | -5 | · | · | · | 1.1
Cn1c(=O)n(CC#N)c2ccccc21 | 1 | -11 | -7% | 3 | 0.8
COc1ccc(C2CC(c3ccc(OC)cc3)n3nc(NC(=O)c4ccco4)nc3N2)cc1 (stereo not drawn) | -7 | -26 | 12% | 7 | -2.4
O=C(O)c1cccc(C(=O)c2cccc3ccccc23)c1 | -2 | · | · | · | -2.2
Cc1csc(N2CCN(c3cc4nc(-c5ccncc5)[nH]c4cc3Cl)CC2)n1 | -1 | · | · | · | 6.1
O=C(Nc1ccccc1C(=O)OC1CCOC1=O)c1ccco1 (stereo not drawn) | -1 | -42 | -4% | 2 | 1.0
COc1ccc(NC(=O)CN(c2ccc([N+](=O)[O-])cc2)S(=O)(=O)c2ccccc2)cc1 | -2 | -23 | 8% | -14 | 6.1
Cc1ccccc1NC(=O)CCN1C(=O)CSC1=O | 5 | -8 | 4% | -1 | -0.5
CC(=O)Nc1cccc(OCCCNS(=O)(=O)c2ccc(C#N)cc2)c1 | 10 | · | · | · | 1.3
O=C(COc1ccccc1-c1ccccc1)N/N=C/c1ccc2ccccc2c1 | 7 | -35 | 57% | -21 | 6.3

17 entries from above, sorted by molecular weight, rising.
SMILES | Mtb betalactam | YopH inh | Mtb growth | Arbovirus inh | RecA intein inh | others
Cn1c(=O)n(CC#N)c2ccccc21 | 1 | -11 | -7% | 3 | 0.8
COc1ccc(N2C(=O)CC(C#N)=C2N)cc1 | -6 | · | -3% | 9 | -0.4
C=COCCNC(=O)Nc1ccc(Cl)cc1Cl | 1 | -10 | -12% | 2 | ·
Cc1ccccc1NC(=O)CCN1C(=O)CSC1=O | 5 | -8 | 4% | -1 | -0.5
CC1CCCCN1CC(=O)NCc1ccc2c(c1)OCO2 (stereo not drawn) | -7 | -43 | -4% | 3 | 0.4
CCc1ccc(NC(=O)CCC(=O)c2ccc(C)cc2)cc1 | 83 | · | · | · | -1.2
O=C(COc1ccc([N+](=O)[O-])cc1Cl)NCC1CCCO1 (stereo not drawn) | 4 | · | -1% | 1 | -0.6
CCOc1ccc(OCCOCCN2CCc3ccccc3C2)cc1 | 2 | 10 | -3% | -9 | 3.7
Cc1cccc(C)c1N1CCN(c2ccc3nnc(C(F)(F)F)n3n2)CC1 | 96 | 4 | 12µM* | -46 | 0.7
O=C(COc1ccccc1-c1ccccc1)N/N=C/c1ccc2ccccc2c1 | 7 | -35 | 57% | -21 | 6.3
O=C(N/C(=C\c1cccc([N+](=O)[O-])c1)C(=O)N(CCO)CCO)c1ccco1 | 4 | · | 0% | 5 | -1.5
CCN(CC(=O)NCc1ccc(Cl)cc1)Cc1cc(=O)n2ccsc2n1 | 13 | · | -6% | 7 | -5.2
CC1=C(C)CC(C(=O)Nc2nc(-c3ccc(C)cc3C)c(C)s2)C(C(=O)O)C1 (stereo not drawn) | 1 | -14 | -3% | 14 | 3.8
Cc1csc(N2CCN(c3cc4nc(-c5ccncc5)[nH]c4cc3Cl)CC2)n1 | -1 | · | · | · | 6.1
Oc1c(C(c2ccccn2)N2CCC(Cc3ccccc3)CC2)cc(Cl)c2cccnc12 (stereo not drawn) | 0 | · | -6% | -30 | 4.9
COc1ccc(C2CC(c3ccc(OC)cc3)n3nc(NC(=O)c4ccco4)nc3N2)cc1 (stereo not drawn) | -7 | -26 | 12% | 7 | -2.4
CC(=O)c1cccc(OCC(=O)Nc2cc(S(=O)(=O)N3CCOCC3)ccc2N2CCCC2)c1 | -5 | · | · | · | 1.1

Going on with the list.
SMILES | Mtb betalactam | YopH inh | Mtb growth | Arbovirus inh | RecA intein inh | others
O=C(OCCCOC(=O)c1ccc([N+](=O)[O-])o1)c1ccc([N+](=O)[O-])o1 | 100 | · | · | · | -3.9
Cc1cccc(N2CCC(N3CCN(C4CCCCC4)C(CCO)C3)CC2)c1C (stereo not drawn) | 0 | · | -2% | 1 | 1.0
CC(C)(C)n1cc(S(=O)(=O)c2ccccc2)[nH]c1=O | 2 | · | 0% | 3 | -3.1
COc1cccc(C2C(C(=O)OCc3ccccc3)=C(C)Nc3ncnn32)c1OC (stereo not drawn) | 4 | -31 | -4% | 1 | -6.2 | Arbovirus inh repeat=0
CCOC(=O)c1c(C)[nH]c(C(=O)OCC(=O)Nc2cc(Cl)ccc2OC)c1C | -3 | 9 | 3% | -3 | 0.3
Cc1ccc(S(=O)(=O)N2CCOCC2)cc1C(=O)O | -5 | -34 | -4% | 9 | 1.3
CCN(CC)S(=O)(=O)c1ccc(NC(=O)COC(=O)c2cc(S(=O)(=O)Nc3ccc(OC)cc3)ccc2O)cc1 | -12 | · | -3% | 6 | -1.0
O=C(Nc1ccc(C(=O)N2CCN(c3ccc(F)cc3)CC2)cc1)C1=CSCCO1 | 2 | · | · | · | 0.3
CCOC(=O)C1(CCOc2ccccc2)CCN(Cc2ccc(COC)o2)CC1 | 4 | · | 1% | 3 | 4.6
CN(C(=O)c1cccc([N+](=O)[O-])c1)c1ccccc1C(=O)NCc1ccccc1 | -6 | · | · | · | -3.5
CC1CCCCN1C(=O)c1ccc(NC(=O)c2ccccc2Cl)cc1 (stereo not drawn) | -3 | · | -2% | -4 | 0.6
CC1=C(C(=O)Nc2ccccc2C)C(c2ccc(C)o2)NC(=S)N1 (stereo not drawn) | -4 | -19 | -9% | 2 | -1.2
Cc1cc([N+](=O)[O-])nn1CC(=O)c1ccccc1 | -6 | · | -10% | -3 | -2.4
N#CCCN1CCN(C2=NC(=O)/C(=C\c3cccs3)S2)CC1 | -4 | · | -1% | 1 | -0.9
CSc1nsc(SCC(=O)N2CCN(c3ccccc3)CC2)n1 | 100 | -5 | ? | 14 | 3.5
O=C(c1ccncc1)N1c2ccccc2Sc2ccccc21 | -8 | · | -4% | 2 | 2.4
O=C(Nc1cccc(F)c1)Nc1ccnn1C1CCN(C(=O)c2cscn2)CC1 | ? | · | · | · | 2.0
Cc1cccc(OCc2nc3ccccc3c(=O)n2N)c1 | -7 | 2 | 11% | 5 | 1.7
Cc1ccc(S(=O)(=O)Nc2ccsc2C#N)cc1 | -4 | · | · | · | 0.4
CCOC(=O)c1cc(-c2ccccc2)n(CCC(=O)N2CCN(c3ccccn3)CC2)c1C | -2 | 3 | 4% | -6 | 8.3
O=S(=O)(c1ccc(NC(=S)Nc2ccccc2)cc1)N1CCOCC1 | 1 | -23 | -3% | 5 | -2.5
CC(C)CN(C(=O)CN1CCN(S(=O)(=O)c2ccccc2)CC1)c1c(N)n(CC(C)C)c(=O)[nH]c1=O | 82 | -35 | 0% | 7 | -2.8
O=C(CCSc1nc2ccccc2s1)N/N=C/c1c(O)ccc2ccccc12 | 4 | -17 | 1% | -32 | -0.2
CCOc1ccc(-n2ccnc(SCC(=O)NC3CCCC3)c2=O)cc1 | 0 | · | · | · | 0.7
Cc1ccc(C(=O)Nc2cc(=O)n(C)c(=O)n2C)o1 | -19 | -25 | -8% | 2 | -1.8

Looked up one by one from above, 3 records:
SMILES | Mtb betalactam | YopH inh | Mtb growth | Arbovirus inh | RecA intein inh | others
CCOC(=O)c1cc(-c2ccccc2)n(CCC(=O)N2CCN(c3ccccn3)CC2)c1C | -2 | 3 | 4% | -6 | 8.3
CCOC(=O)c1c(C)[nH]c(C(=O)OCC(=O)Nc2cc(Cl)ccc2OC)c1C | -3 | 9 | 3% | -3 | 0.3
CN(C(=O)c1cccc([N+](=O)[O-])c1)c1ccccc1C(=O)NCc1ccccc1 | -6 | · | · | · | -3.5

Later entries:
SMILES | Mtb betalactam | YopH inh | Mtb growth | Arbovirus inh | RecA intein inh | others
CCCCC(CC)c1nnc(NC(=O)c2cccs2)s1 (stereo not drawn) | · | · | · | 5 | 0.5
Cc1nn(Cc2ccc(Cl)cc2)c(C)c1NC(=O)c1c(-c2ccccc2)noc1C | 0 | -5 | -4% | -12 | -0.4
CN(C)CCN(C(=O)c1cc(Cl)sc1Cl)c1nc2ccc(F)cc2s1 | -1 | -36 | 2% | -2 | -1.4
CC(C)COc1cccc(C(=O)NNC(=O)C2COc3ccccc3O2)c1 (stereo not drawn) | -8 | · | · | · | -0.1
Cc1cccc2nc3ccccc3nc12 | -15 | · | 2% | -2 | -0.3
CCOc1ccc(N2C(=O)/C(=C/c3ccco3)C(=O)NC2=S)cc1 | 3 | · | · | · | 10.0
CCOC(=O)c1ccc(NC(=O)CCC(=O)OC)cc1 | 88 | -33 | 72% | 10 | -3.6 | Arbovirus inh repeat=-2
Cc1cc(NC(=O)/C=C/c2ccccc2)c(C(C)C)cc1O | -7 | · | -8% | 3 | 6.8
CC1CCCCC1NC(=O)CCN1C(=O)C2C3C=CC(C3)C2C1=O (stereo not drawn) | -3 | · | · | · | -0.4
O=c1cc(CO)oc(C(Nc2ccccn2)c2ccc(F)cc2)c1O (stereo not drawn) | 8 | 23 | 4% | 10 | -0.3
CC(C)(Cc1cccc(CC(C)(C)C(=O)O)c1)C(=O)O | -6 | · | · | · | -1.2
Cn1c(N)c(C(=O)COC(=O)c2cc(-c3ccco3)nc3ccccc23)c(=O)n(C)c1=O | · | -14 | · | -1 | -5.4
CC(Oc1ccc2c3c(c(=O)oc2c1)CCC3)C(=O)NC1CCN(Cc2ccccc2)CC1 (stereo not drawn) | 4 | · | · | · | -1.1
Cc1[nH]n(C(N)=S)c(=O)c1N=Nc1cccc(C(F)(F)F)c1 | 6 | · | · | · | 0.2
CCOC(=O)c1ccc(N2CN(CCc3ccccc3)CNC2=S)cc1 | · | -26 | 12% | 5 | 4.7
O=C(CN1CCCN(Cc2ccc(F)cc2Cl)C1=O)NCc1ccccc1 | -16 | -21 | 1% | 6 | -0.8
Cn1c(=O)c(C#N)c(-c2ccc(F)cc2)c2cc(C(=O)c3cc(Cl)cc(Cl)c3O)cnc21 | -2 | · | · | · | 0.7
CCc1nnc(NC(=O)c2ccc(S(C)(=O)=O)cc2)s1 | -3 | · | 8% | · | 1.1

Source: PubChem
